Compound activity (PubChem)
MITF inhib – inhibitors of MITF, primary screen, MITF inhibitor project, cell-based, luminescence; 37,000 compounds, 0.28% hits; TRPM1 promoter luciferase, 24 h; inhibition, % (test concentration not listed);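 active means most replicates at 85% or more, or half of them and the mean; inconclusive means half reach 85% but not the mean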;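 further: human melanocyte line stably carrying TRPM1 promoter luciferase reporter; 0% = vehicle wells and 100% = a positive control; the first replicate is given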
PD-1 reversal – activators reversing PD-1 mediated T-cell inhibition, primary screen, luminescence, primary human CD4 T cells, PD-L1 beads. CellTiter-Glo 96 h. activation, % (test concentration not listed). 29,000 tested, under 10 active;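 active means replicate mean of 50% or more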;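 further: 0% = median vehicle wells and 100% = positive control; 100 nL library stock added to about 50 µL; numbers are from one replicate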
Shh pathway inh – Hedgehog pathway signaling inhibitors, primary screen, luminescence, Shh-LIGHT2 cells, Gli-luciferase. AID 2313, 2010. Shh-LIGHT2 Gli-luciferase reporter, 30 h. inhibition, % (test concentration not listed). 22,000 compounds, 2.1% hits;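 active means replicate mean of 65% or more; inconclusive means mean lower but half the replicates past it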;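 further: pathway switched on by Shh-conditioned medium diluted 1 in 25 in low serum; 100 nL library stock added to about 40 µL; 0% = median of neutral wells and 100% = positive control level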
YB-1 expr inh – inhibitors of YB-1 gene expression, primary screen, cell-based, fluorescence; U2OS, qRT-PCR YB-1 vs CDIP delta delta Cp, 16 h; stronger effect = higher value; zero = DMSO, each unit about twofold; delta delta Cp (YB-1 minus CDIP) (concentration not given with the values); 30,000 compounds, 0.37% hits; AID 434959, 2010;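 active means delta delta Cp rounded down to an integer at or above 3, about 3 SD of DMSO wells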;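 further: higher means less YB-1 transcript or more CDIP transcript relative to DMSO; stock transfer was 100 nL into about 100 µL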
Numbers without * were called inactive; ? = inconclusive; . = no result given. A portion of the library, so the mix of outcomes need not match the whole.

SMILES	MITF inhib	PD-1 reversal	Shh pathway inh	YB-1 expr inh
Cc1noc(C)c1NC(=O)N(C)C[C@H]1OCCCC[C@@H](C)Oc2ccc(NC(=O)NC(C)C)cc2C(=O)N([C@H](C)CO)C[C@@H]1C	-3	.	.	-0.19
Cc1ccc(OCC(=O)Nc2ccc(-c3nc4ccccc4s3)c(O)c2)c(C)c1	-25	0.1	.	.
COc1ccc(CN(C)C[C@H]2Oc3c(NS(=O)(=O)c4ccc(Cl)cc4)cccc3C(=O)N([C@H](C)CO)C[C@@H]2C)cc1	3	1.7	-29	0.13
Cc1noc(C)c1S(=O)(=O)Nc1ccc2c(c1)C(=O)N([C@@H](C)CO)C[C@H](C)[C@@H](CN(C)S(=O)(=O)c1ccccc1)O2	-9	-1.7	-27	-0.14
Cc1cc(N(CC(=O)Nc2cccc(C(F)(F)F)c2)S(C)(=O)=O)ccc1Br	20	-7.0	.	.
C[C@H](CO)N1C[C@H](C)[C@H](CN(C)Cc2ccccc2)Oc2c(NC(=O)c3cnccn3)cccc2C1=O	-31	.	8	-0.35
C[C@@H]1CN([C@@H](C)CO)C(=O)c2cccc(NS(=O)(=O)c3cccs3)c2O[C@H]1CN(C)C	-3	1.3	-19	-0.97
C[C@H]1CN([C@@H](C)CO)C(=O)c2cc(NS(=O)(=O)c3ccc(Cl)cc3)ccc2O[C@@H]1CN(C)Cc1ccc(C(=O)O)cc1	0	-0.1	-18	-0.18
C[C@H]1CN([C@@H](C)CO)C(=O)Cc2cc(NC(=O)CCN3CCOCC3)ccc2O[C@H]1CN(C)Cc1ccc2c(c1)OCO2	1	1.6	4	-0.41
C[C@@H]1CN([C@H](C)CO)C(=O)Cc2cc(NC(=O)NC3CCCCC3)ccc2O[C@@H]1CN(C)C(=O)NC1CCCCC1	-5	1.1	4	0.079
C[C@H](CO)N1C[C@H](C)[C@@H](CN(C)C)Oc2c(NC(=O)C3CC3)cccc2C1=O	-8	1.1	?	-0.73
COc1ccccc1CC(=O)Nc1ccc(-c2noc(-c3ccc(OC)c(OC)c3)n2)cc1	-26	0.1	.	.
COC(=O)c1ccc2c(c1)nc(C)n2CCO	-10	0.7	.	-0.76
C[C@H]1CN([C@@H](C)CO)C(=O)Cc2cc(NC(=O)Nc3ccc(C(F)(F)F)cc3)ccc2O[C@H]1CN(C)CC1CCCCC1	1	-5.4	?	-0.24
C[C@H]1CN([C@@H](C)CO)C(=O)c2cccc(NC(=O)c3nc4ccccc4s3)c2O[C@H]1CN(C)C(=O)Nc1ccc(F)cc1	-6	-0.5	-8	0.88
C[C@@H]1CN([C@H](C)CO)C(=O)c2cccc(NC(=O)c3ccncc3)c2O[C@H]1CN(C)Cc1ccc(-c2ccccc2)cc1	27	-3.3	29	0.19
Cn1nnnc1SCC(=O)Nc1cc(Cl)cc(Cl)c1	-22	-0.9	.	.
C[C@@H]1CN([C@H](C)CO)C(=O)c2cc(NS(=O)(=O)c3cn(C)cn3)ccc2O[C@@H]1CN(C)S(=O)(=O)c1cn(C)cn1	-9	2.8	-16	0.32
C[C@H]1CN([C@@H](C)CO)C(=O)Cc2cc(NC(=O)Nc3ccccc3)ccc2O[C@H]1CN(C)S(=O)(=O)c1ccc(F)cc1	17	-0.6	15	0.51
COc1ccc(S(=O)(=O)Nc2ccc3c(c2)C(=O)N([C@H](C)CO)C[C@@H](C)[C@@H](CN(C)Cc2ccc4c(c2)OCO4)O3)cc1	0	1.4	-4	-0.27
COc1cccc2cc(-c3nnc(SCC(=O)Nc4sc5c(c4C#N)CCCC5)n3C)oc12	13	-2.9	.	.
CCOc1ccc(NC(=O)CSc2n[nH]c(=O)n2-c2ccccc2)cc1	1	-1.8	.	.
C[C@H](CO)N1C[C@H](C)[C@H](CN(C)Cc2ccc3c(c2)OCO3)Oc2ccc(NC(=O)Nc3ccc(C(F)(F)F)cc3)cc2C1=O	1	-0.4	8	0.18
C[C@@]1(C2CCCC2)Cc2cc(OCC(=O)O)c(Cl)c(Cl)c2C1=O	6	-2.7	15	0.22
C[C@H]1CN([C@@H](C)CO)C(=O)Cc2cc(NC(=O)CCCCCC(=O)Nc3ccccc3N)ccc2O[C@H]1CN(C)C	-8	0.8	.	-0.36

Overlap with the part before: 3 entries, then new ones.
SMILES	MITF inhib	PD-1 reversal	Shh pathway inh	YB-1 expr inh
C[C@H](CO)N1C[C@H](C)[C@H](CN(C)Cc2ccc3c(c2)OCO3)Oc2ccc(NC(=O)Nc3ccc(C(F)(F)F)cc3)cc2C1=O	1	-0.4	8	0.18
C[C@@]1(C2CCCC2)Cc2cc(OCC(=O)O)c(Cl)c(Cl)c2C1=O	6	-2.7	15	0.22
C[C@H]1CN([C@@H](C)CO)C(=O)Cc2cc(NC(=O)CCCCCC(=O)Nc3ccccc3N)ccc2O[C@H]1CN(C)C	-8	0.8	.	-0.36
C[C@@H]1CN([C@H](C)CO)C(=O)c2cc(NC(=O)NC3CCCCC3)ccc2O[C@@H]1CN(C)S(=O)(=O)c1ccc(F)cc1	-10	0.3	.	0.04
CC(C)c1ccc(NC(=O)CSc2n[nH]c(-c3ccccc3Cl)n2)cc1	-50	-0.8	.	.
C[C@@H]1CN([C@@H](C)CO)C(=O)c2cc(NC(=O)Nc3ccc(F)cc3)ccc2O[C@H]1CN(C)Cc1ccncc1	-1	.	-5	-0.068
CC(C)NC(=O)Nc1ccc2c(c1)C(=O)N([C@H](C)CO)C[C@H](C)[C@@H](CN(C)C)OCCCC[C@@H](C)O2	4	.	-9	0.00066
CS(=O)(=O)N(CC(=O)NC1CCCC1)c1cc(Cl)c(Cl)cc1Cl	19	-0.1	.	.
C[C@@H]1CN([C@H](C)CO)C(=O)c2cc(NC(=O)CCCCCC(=O)Nc3ccccc3N)ccc2O[C@@H]1CN(C)S(=O)(=O)c1ccc(Cl)cc1	11	-0.6	.	0.48
COc1ccccc1NC(=O)CSc1nnnn1-c1cccc(C)c1C	-6	-0.4	.	.
Cc1nc(Oc2ccc(NC(=O)c3ccccc3)cc2)c2c3c(sc2n1)CCC3	17	-1.2	.	-0.44
Cc1ccc(NC(=O)CSc2nnc(-c3ccc(Cl)cc3Cl)n2-c2ccccc2)cc1	5	-0.4	.	.
O=C(CSc1ccccn1)c1ccc(OCc2ccc(F)cc2)cc1	-59	0.0	?	-0.081
C[C@@H]1CN([C@H](C)CO)C(=O)c2cc(NC(=O)Cn3cnnn3)ccc2O[C@@H]1CN(C)S(=O)(=O)c1cn(C)cn1	0	1.5	-4	0.55
CCOc1ccc(OCC(=O)Nc2sc3c(c2C(N)=O)CCC(C)C3)cc1 (stereo not drawn)	-7	1.8	.	.
C[C@H](CO)N1C[C@H](C)[C@H](CN(C)S(=O)(=O)c2cccs2)Oc2ccc(N(C)C)cc2C1=O	-3	-2.7	-14	-0.38
COc1ccc(N2C(=O)CC(SCCc3nc4ccccc4[nH]3)C2=O)cc1 (stereo not drawn)	6	0.8	.	.
Cc1nc(SCC(=O)C(C)(C)C)[nH]c(=O)c1Cc1c(Cl)cccc1Cl	3	-0.7	.	-0.65
Cc1ccc(S(=O)(=O)N(C)C[C@@H]2Oc3ccc(NS(=O)(=O)c4ccccc4)cc3C(=O)N([C@@H](C)CO)C[C@@H]2C)cc1	-13	-1.0	.	1.1
CCOC(=O)c1c(C)cc(O)c(C)c1O	-16	.	-41	-0.12
C[C@@H]1CCCCO[C@H](CN(C)C(=O)C2CCCCC2)[C@@H](C)CN([C@H](C)CO)C(=O)c2cc(NC(=O)Nc3ccc(F)cc3)ccc2O1	-6	-0.7	-4	0.14
COc1ccc(NC(=O)Nc2ccc3c(c2)C(=O)N([C@H](C)CO)C[C@H](C)[C@H](CN(C)Cc2ccncc2)O3)cc1	4	0.2	-13	0.29
COC(=O)c1c(C)oc2ccc(N(C(=O)c3ccncc3)S(=O)(=O)c3ccc(OC)cc3)cc12	56	-4.0	.	.
C[C@H](CO)N1C[C@H](C)[C@H](CN(C)S(=O)(=O)c2ccc(Cl)cc2)Oc2ccc(NC(=O)Cc3ccccc3)cc2C1=O	2	-0.3	4	1.6
C[C@H](CO)N1C[C@H](C)[C@@H](CN(C)S(=O)(=O)c2ccccc2)Oc2c(NC(=O)Nc3ccc(C(F)(F)F)cc3)cccc2C1=O	-3	-0.1	-16	-0.69
COc1ccc(NC(=O)Nc2cccc3c2O[C@H](CN(C)C(=O)Nc2ccc4c(c2)OCO4)[C@@H](C)CN([C@@H](C)CO)C3=O)cc1	-27	-0.3	-17	-0.11
COC(=O)c1cc(NC(=O)CSc2nc(Nc3ccccc3)nc(N3CCOCC3)n2)ccc1Cl	3	-5.6	.	.
C[C@@H]1CN([C@@H](C)CO)C(=O)c2cc(NC(=O)Nc3cccc4ccccc34)ccc2O[C@@H]1CN(C)S(=O)(=O)c1cn(C)cn1	3	1.1	-10	0.19

Another view of part of the listing above:
| mol | MITF inhib | PD-1 reversal | Shh pathway inh | YB-1 expr inh |
| --- | --- | --- | --- | --- |
| O=C(CSc1ccccn1)c1ccc(OCc2ccc(F)cc2)cc1 | -59 | 0.0 | ? | -0.081 |
| COc1ccc(NC(=O)Nc2ccc3c(c2)C(=O)N([C@H](C)CO)C[C@H](C)[C@H](CN(C)Cc2ccncc2)O3)cc1 | 4 | 0.2 | -13 | 0.29 |

Returning to the listing with the three entries that preceded the break.
SMILES	MITF inhib	PD-1 reversal	Shh pathway inh	YB-1 expr inh
COc1ccc(NC(=O)Nc2cccc3c2O[C@H](CN(C)C(=O)Nc2ccc4c(c2)OCO4)[C@@H](C)CN([C@@H](C)CO)C3=O)cc1	-27	-0.3	-17	-0.11
COC(=O)c1cc(NC(=O)CSc2nc(Nc3ccccc3)nc(N3CCOCC3)n2)ccc1Cl	3	-5.6	.	.
C[C@@H]1CN([C@@H](C)CO)C(=O)c2cc(NC(=O)Nc3cccc4ccccc34)ccc2O[C@@H]1CN(C)S(=O)(=O)c1cn(C)cn1	3	1.1	-10	0.19
CNc1ccccc1C(=O)OC1OC(C)C(O)C(O)C1O (stereo not drawn)	-4	0.6	-1	-0.27
Cc1cc2c(=O)n(Cc3ccco3)c(SCc3cc(=O)[nH][nH]3)nc2s1	-10	0.2	.	.
C[C@@H]1CN([C@@H](C)CO)C(=O)c2cc(NC(=O)Nc3ccccc3)ccc2O[C@@H]1CN(C)Cc1ccccc1	2	2.0	.	0.19
COc1cccc(CO)c1OCC(=O)Nc1ccc(F)cc1	-10	1.8	.	.
C/C1=C/CC(=O)[C@@H](C)C[C@H]2OC(=O)C(CO)=C2CC1	-3	-1.5	-7	0.14
Cc1ccc(S(=O)(=O)N(C)C[C@@H]2Oc3c(NC(=O)c4cnccn4)cccc3C(=O)N([C@H](C)CO)C[C@H]2C)cc1	6	0.7	-6	-0.45
Cc1cc(C)c(S(=O)(=O)N(C)CC(=O)N2CCC(C(N)=O)CC2)c(C)c1	4	1.2	.	.
Cc1cccc(C)c1NC(=O)CCn1cnc2ccccc2c1=O	3	0.4	.	.
Cc1noc(C)c1S(=O)(=O)Nc1cccc2c1O[C@H](CN(C)Cc1ccc(C(=O)O)cc1)[C@H](C)CN([C@H](C)CO)C2=O	-7	1.1	15	0.033
COc1ccc(S(=O)(=O)N(C)C[C@H]2Oc3ccc(NC(=O)Nc4ccc(F)cc4)cc3C(=O)N([C@@H](C)CO)C[C@@H]2C)cc1	-2	1.2	-14	-0.31
Cc1noc(C)c1S(=O)(=O)Nc1ccc2c(c1)C(=O)N([C@H](C)CO)C[C@H](C)[C@@H](CN(C)S(=O)(=O)c1ccccc1)OCCCC[C@@H](C)O2	2	-0.9	.	-0.31
CCn1c(SCc2nc3ccccc3c(=O)[nH]2)nnc1-c1ccc(Cl)cc1	-7	-0.2	.	.
Cc1cc(C(=O)Nc2cccc3c2O[C@H](CN(C)Cc2ccc4c(c2)OCO4)[C@H](C)CN([C@H](C)CO)C3=O)n(C)n1	-12	0.8	-29	0.15
C[C@@H]1CCCCO[C@H](CN(C)C(=O)Nc2ccc(F)cc2)[C@@H](C)CN([C@H](C)CO)C(=O)c2cc(NC(=O)Nc3ccc(C(F)(F)F)cc3)ccc2O1	0	.	3	-0.1
CCN1CCN(Cc2c(C)[nH]c3ccc(C(=O)OC)cc3c2=O)CC1	-20	3.7	.	.
Cc1ccc(S(=O)(=O)Nc2ccc3c(c2)C(=O)N([C@H](C)CO)C[C@H](C)[C@@H](CN(C)Cc2ccc(C(F)(F)F)cc2)OCCCC[C@@H](C)O3)cc1	47	.	.	0.057
COc1ccc(Oc2ccc(NC(=O)CCC(=O)O)cc2)cc1	-47	0.3	.	.
COc1ccc(NC(=O)Nc2ccc3c(c2)C(=O)N([C@H](C)CO)C[C@H](C)[C@H](CN(C)S(C)(=O)=O)OCCCC[C@@H](C)O3)cc1	12	1.0	2	0.92
COC(=O)C1=C(C)n2nnnc2NC1c1cc2ccccc2o1 (stereo not drawn)	14	-0.2	.	.
